DUX4 inh: blocks DUX4-driven transcriptional activation; 293T-iDUX4 ZSCAN4-Gaussia luciferase reporter, 24 h; stronger effect = lower value; activity change, negative = inhibition, % (no concentration beside the values); 37,000 tested, 0.8% active; AID 1224904;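 active means -10% or lower and over 25 points stronger than a control reporter; inconclusive means -10% or lower with a smaller gap; inactive means above -10%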;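 further: 0% = median of neutral control wells and -100% = median of positive control wells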
DUX4 inh difference: also measured in DUX4 inh; calls as there; Gaussia minus Italica difference, %; measured here: selective DUX4 reporter inhibition;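 worked out from the two reporters; negative = selective loss of the DUX4 reporter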
DUX4 inh control: second read-out of DUX4 inh, no call of its own (marks repeat the call); activity change, negative = inhibition, %; measured here: Italica tet-on control reporter;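 0 = neutral control and -100 = positive control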
* = called active by the depositor; u = inconclusive; x = not tested or not shown; & = joins results of further samples.

DUX4 inh	DUX4 inh control	DUX4 inh difference	smiles
0	-5.1	5	C[C@@H]1CC=CC[C@@H](c2ccccc2)NC(=O)[C@@H](C)N(C)C(=O)c2ccccc2O1 (mixture of isomers)
u	x	x	CO[C@@H]1CN(C)C(=O)c2ccc(NC(=O)C3CC3)cc2OC[C@H](C)N(CCc2ccccc2)C[C@H]1C
4	3.3	1	COc1ccccc1-c1ccc([C@@H]2[C@@H](C#N)N(C(=O)NC(C)C)[C@@H]2CO)cc1
u	x	x	C[C@H]1CN([C@@H](C)CO)C(=O)c2c(c3ccccc3n2C)-c2ccccc2CO[C@@H]1CN(C)C(=O)Nc1ccc(-c2ccccc2)cc1
0	0.4	-1	CCCNC(=O)N1[C@H](C#N)[C@@H](c2ccc(-c3cccnc3)cc2)[C@@H]1CO
u	x	x	COc1ccc2c3c([nH]c2c1)[C@H](CO)N(C(=O)Nc1ccc(F)cc1)CC31CCN(S(=O)(=O)c2ccccc2)CC1
4	0.8	3	CCCC#Cc1ccc2c(c1)O[C@H](CN(C)C(=O)CC1CC1)[C@@H](C)CN([C@@H](C)CO)S2(=O)=O
-1	-1.5	1	C[C@@H]1CN([C@H](C)CO)C(=O)c2cc(/C=C/c3ccccc3)cnc2O[C@@H]1CN(C)S(=O)(=O)c1ccccc1F
-1	1.8	-2	C[C@H]1CN([C@@H](C)CO)C(=O)c2cc(NC(=O)CCC(F)(F)F)ccc2O[C@H]1CN(C)S(=O)(=O)c1ccc(F)cc1
13	2.2	11	COc1ccc2c3c([nH]c2c1)[C@@H](CO)N(C(C)=O)CC31CN(C(=O)Nc2c(C)noc2C)C1
2	1.2	1	COc1ccccc1CNC(=O)C[C@H]1C[C@@H]2c3cc(NC(=O)CN(C)C)ccc3O[C@@H]2[C@@H](CO)O1
-4	-4.8	1	COCC#Cc1ccc([C@H]2[C@@H](CO)N3CCCCN(C(=O)Nc4cc(F)ccc4F)C[C@@H]23)cc1
-1	5.4	-7	COc1ccc(C#Cc2ccc([C@H]3[C@@H](CO)N4C(=O)CN(C(=O)NC(C)C)C[C@H]34)cc2)cc1
0	1.0	-1	CN1C(=O)c2cc(NS(=O)(=O)c3cccc(F)c3)ccc2OC[C@@H]2O[C@H](CC(=O)N3CCc4ccccc4C3)CC[C@H]21
-29*	-2.5*	-27*	N#C[C@@H]1[C@@H](c2ccccc2-c2cccc(F)c2)[C@@H](CO)N1C(=O)NC1CCCCC1
1	6.4	-5	CC(C)NC(=O)N1C[C@@H]2[C@H](c3ccccc31)[C@H](CO)N2C(=O)Nc1ccccc1
-1	-0.2	-1	C[C@@H]1CN([C@H](C)CO)C(=O)CCCn2nncc2CO[C@H]1CN(C)CC1CCCCC1
9	8.0	1	O=C(C[C@@H]1C[C@@H]2c3cc(NC(=O)C4CCC4)ccc3O[C@@H]2[C@H](CO)O1)NCc1ccccc1F
2	1.9	0	CN(C)CC(=O)N1[C@H](C#N)[C@@H](c2ccc(-c3cccc(C(=O)N(C)C)c3)cc2)[C@@H]1CO
0	-0.3	0	Cc1ccc(S(=O)(=O)Nc2ccc3c(c2)CC(=O)N([C@@H](C)CO)C[C@H](C)[C@@H](CN(C)Cc2ccc(Cl)c(Cl)c2)O3)cc1
1	2.0	-1	C[C@@H]1CN([C@@H](C)CO)C(=O)CCCn2nncc2CO[C@@H]1CN(C)C(=O)OCc1ccccc1
-1	1.6	-2	C/C=C/c1ccc([C@H]2[C@H](CO)N(C(=O)NCCC)[C@H]2CNC(=O)C2CC2)cc1
6	-0.2	7	O=C(NCCN1CCCCC1)[C@@H]1N[C@@H]2c3ccc(-c4ccc(F)cc4)c(=O)n3C[C@@H]2[C@H]1CO
7	4.1	3	O=C(NCCc1ccccc1)[C@@H]1[C@@H](CO)[C@@H]2Cn3c(cccc3=O)[C@H]1N2C(=O)C1CC1
-2	8.2	-10	CCCNC(=O)N1CC(=O)N2[C@H](CO)[C@@H](c3ccc(-c4ccc(F)cc4)cc3)[C@@H]2C1
5	0.2	5	Cc1cccc(CN(C)C[C@H]2OCc3cn(nn3)CCCC(=O)N([C@@H](C)CO)C[C@H]2C)c1
1	-0.2	1	O=C(C[C@H]1CC[C@@H]2[C@H](COC[C@@H](O)CN2S(=O)(=O)c2cccc(Cl)c2)O1)NC1CCCC1
4	5.5	-2	CC=Cc1ccc2n(c1=O)C[C@@H]1[C@@H](CO)[C@H](C(=O)NCCC)[C@H]2N1C(=O)C1CC1 (mixture of isomers)
-2	6.0	-8	O=C(Cc1ccccn1)N1CC[C@@H]2[C@H](CO)Nc3ccc(-c4cccc(F)c4)cc3[C@@H]21
0	-1.3	1	COCC(=O)N(C[C@H]1N[C@H](CO)[C@H]1c1ccc(-c2cccnc2)cc1)C(C)C
-2	0.7	-2	CC(C)NC(=O)N[C@H]1CC[C@@H](CC(=O)NCCCN(C)C)O[C@@H]1CO
0	1.3	-2	CN1C(=O)c2cc(NC(=O)c3cc(F)cc(F)c3)ccc2OC[C@H]2O[C@@H](CC(=O)O)CC[C@H]21
2	-2.8	5	COc1ccccc1CNC(=O)C[C@H]1C[C@@H]2c3cc(NS(C)(=O)=O)ccc3O[C@@H]2[C@H](CO)O1
10	6.6	4	CN1c2ccc(-c3ccccc3)cc2[C@H]2[C@H](CCN2C(=O)CN2CCOCC2)[C@H]1CO
u	x	x	CCCNC(=O)N1CC2(C1)[C@H](c1ccccc1)[C@@H](CO)N2Cc1cccc(F)c1
6	5.2	0	C[C@@H]1CN([C@H](C)CO)C(=O)c2ccccc2-c2ccccc2CO[C@@H]1CN(C)S(=O)(=O)c1ccc(C(F)(F)F)cc1
-8	15	-23	CCCN1[C@H](C(=O)N2CCN(C)CC2)[C@@H](CO)[C@@H]2Cn3c(ccc(-c4ccccc4F)c3=O)[C@@H]21
2	5.2	-3	N#C[C@H]1[C@@H](c2ccccc2)[C@H](CO)N1C(=O)C1CCCC1
-4	0.5	-4	C[C@@H]1CN([C@@H](C)CO)S(=O)(=O)c2ccc(C#Cc3ccccc3)cc2O[C@@H]1CN(C)C
1	-0.2	1	C[C@H](CO)N1C[C@H](C)[C@@H](CN(C)CC2CCCCC2)Oc2ccc(NS(=O)(=O)c3ccc(Cl)cc3)cc2C1=O
u	x	x	Cc1cccc(-c2ccc([C@@H]3[C@@H](CO)N4CCCCN(S(=O)(=O)c5cccs5)C[C@@H]34)cc2)c1
1	3.5	-3	COCC(=O)NC[C@H]1N[C@H](CO)[C@@H]1c1ccc(-c2ccccc2F)cc1
2	1.4	0	C[C@H]1CCCCO[C@@H](CN(C)C(=O)Nc2ccc(C(F)(F)F)cc2)[C@@H](C)CN([C@@H](C)CO)C(=O)c2cc(NS(=O)(=O)c3ccc(Cl)cc3)ccc2O1
1	-0.8	2	COc1cccc(S(=O)(=O)Nc2ccc3c(c2)[C@H]2C[C@@H](CC(=O)N[C@@H](C)c4ccccc4)O[C@@H](CO)[C@H]2O3)c1
4	0.3	4	CO[C@@H]1CC[C@@H]2CCN(C)C(=O)CCCN(C)C(=O)c3cccc(C#N)c3OC[C@H]1O2
u	x	x	C[C@H]1CCCCO[C@H](CN(C)C(=O)NC2CCCCC2)[C@@H](C)CN([C@@H](C)CO)C(=O)c2cc(NC(=O)Cc3ccccc3)ccc2O1
19	13	6	CCC(=O)N1CC(=O)N2[C@H](CO)[C@H](c3ccc(-c4cccnc4)cc3)[C@H]2C1
11	6.3	4	COc1cccc(NC(=O)N2C[C@H](O)COC[C@@H]3O[C@H](CC(=O)NCc4ccccc4F)CC[C@H]32)c1
7	8.1	-1	O=C(Cc1ccccc1)N1CC[C@@H]2[C@@H](CO)Nc3ccc(-c4cccc(F)c4)cc3[C@@H]21
-2	-2.7	1	C[C@@H](O)C#Cc1ccc([C@@H]2[C@@H](CO)N3CCCCN(S(=O)(=O)Cc4ccccc4)C[C@@H]23)cc1
0	-1.9	2	O=C(N[C@@H]1CC[C@H](CC(=O)N2CCN(c3ccccc3)CC2)O[C@@H]1CO)c1ccncc1
23	9.3	14	N#Cc1ccc(-c2ccc3c(c2)[C@H]2[C@H](CCN2C(=O)CN2CCOCC2)[C@@H](CO)N3)cc1
0	5.3	-5	CC(C)CC#Cc1cnc2c(c1)C(=O)N([C@@H](C)CO)C[C@H](C)[C@@H](CN(C)C(=O)CC1CC1)O2
2	-6.3	8	O=C(CCN1CCCCC1)N[C@H]1CC[C@H](CCNC(=O)c2cc(Cl)cc(Cl)c2)O[C@H]1CO
-4	2.7	-7	O=C1N[C@H](c2ccccc2)COCc2cnnn2CC[C@H]1Cc1ccc(C(F)(F)F)cc1
4	1.3	2	C[C@@H]1CN([C@H](C)CO)S(=O)(=O)c2ccc(C3=CCCC3)cc2O[C@H]1CN(C)C(=O)c1ccccn1

Carrying on.
DUX4 inh	DUX4 inh control	DUX4 inh difference	smiles
4	6.4	-3	CC(C)NC(=O)N1C[C@@H]2[C@H](c3ccccc31)[C@H](CO)N2Cc1ccccn1
-1	0.3	-1	CO[C@H]1CC[C@@H]2CCOc3c(C#N)cccc3C(=O)N(C)CC3(CCCCC3)CC(=O)N(C)C[C@@H]1O2
6	0.8	5	O=C(C[C@@H]1CC[C@@H]2[C@H](COC[C@H](O)CN2C(=O)Nc2ccccc2)O1)NCc1ccccc1F
5	3.6	2	CCCN1C[C@@H](C)[C@@H](OC)CN(C)C(=O)c2ccc(NC(=O)CC(F)(F)F)cc2OC[C@H]1C
3	4.7	-2	CC(C)C(=O)Nc1ccc2c(c1)C(=O)N(C)[C@H]1CC[C@@H](CC(=O)NCC3CC3)O[C@@H]1CO2
2	5.6	-3	Cc1ccccc1-c1ccc2c(c1)O[C@@H](CN(C)Cc1ccncc1)[C@@H](C)CN([C@H](C)CO)S2(=O)=O
-7	-2.4	-5	CO[C@H]1CN(C)C(=O)c2cc(NC(=O)c3nc4ccccc4s3)ccc2OC[C@H](C)NC[C@@H]1C
-5	-4.0	-1	C[C@@H]1CCCCO[C@@H](CN(C)C(=O)Nc2cccc3ccccc23)[C@H](C)CN([C@@H](C)CO)C(=O)c2cc(NC(=O)CCC(F)(F)F)ccc2O1

Complete entries from above:
Cc1ccccc1-c1ccc2c(c1)O[C@@H](CN(C)Cc1ccncc1)[C@@H](C)CN([C@H](C)CO)S2(=O)=O reads DUX4 inh = 2; DUX4 inh control = 5.6; DUX4 inh difference = -3
CO[C@H]1CN(C)C(=O)c2cc(NC(=O)c3nc4ccccc4s3)ccc2OC[C@H](C)NC[C@@H]1C reads DUX4 inh = -7; DUX4 inh control = -2.4; DUX4 inh difference = -5

Single values from the results shown.
CCCN1C[C@@H](C)[C@@H](OC)CN(C)C(=O)c2ccc(NC(=O)CC(F)(F)F)cc2OC[C@H]1C in DUX4 inh control reads 3.6
C[C@@H]1CCCCO[C@@H](CN(C)C(=O)Nc2cccc3ccccc23)[C@H](C)CN([C@@H](C)CO)C(=O)c2cc(NC(=O)CCC(F)(F)F)ccc2O1 in DUX4 inh control reads -4.0
O=C(C[C@@H]1CC[C@@H]2[C@H](COC[C@H](O)CN2C(=O)Nc2ccccc2)O1)NCc1ccccc1F in DUX4 inh control reads 0.8
CC(C)NC(=O)N1C[C@@H]2[C@H](c3ccccc31)[C@H](CO)N2Cc1ccccn1 in DUX4 inh control reads 6.4
CC(C)C(=O)Nc1ccc2c(c1)C(=O)N(C)[C@H]1CC[C@@H](CC(=O)NCC3CC3)O[C@@H]1CO2 in DUX4 inh reads 3
CO[C@H]1CN(C)C(=O)c2cc(NC(=O)c3nc4ccccc4s3)ccc2OC[C@H](C)NC[C@@H]1C in DUX4 inh difference reads -5
Cc1ccccc1-c1ccc2c(c1)O[C@@H](CN(C)Cc1ccncc1)[C@@H](C)CN([C@H](C)CO)S2(=O)=O in DUX4 inh difference reads -3

Going on with the list.
DUX4 inh	DUX4 inh control	DUX4 inh difference	smiles
7	10	-3	COc1ccccc1-c1ccc([C@H]2[C@H]3CN(C(=O)c4cccnc4)CCCCN3[C@H]2CO)cc1
-1	-1.0	0	CC(=O)NC[C@@H]1[C@@H](c2ccc(-c3ccccc3)cc2)[C@H](CO)N1C(=O)C1CC1
u	x	x	C[C@H](CO)N1C[C@H](C)[C@H](CN(C)C(=O)[C@H](Cc2ccccc2)N(C)C)OCc2ccccc2-c2c(n(C)c3ccccc23)C1=O
13&6	4.9&2.9	8&3	O=S(=O)(c1cccc(Cl)c1)N1[C@@H]2CNC[C@H]1C2c1ccc(-c2ccncc2)cc1 (stereo partly specified)
-1	5.7	-7	CCC(=O)N1[C@@H]2c3ccc(/C=C/c4ccccc4)c(=O)n3C[C@H]1[C@H](CO)[C@H]2C(=O)N1CCOCC1
u	x	x	COc1ccc2c3c(n(C)c2c1)[C@@H](CO)N(Cc1ccccc1OC)CC31CCN(CC2CC2)CC1
-7	-5.3	-2	O=C(C[C@H]1C[C@@H]2c3cc(NC(=O)Nc4ccc(C(F)(F)F)cc4)ccc3O[C@@H]2[C@H](CO)O1)NCc1ccccn1
3	2.5	0	C[C@H]1CN([C@@H](C)CO)C(=O)Cc2cc(NC(=O)CCC(F)(F)F)ccc2O[C@@H]1CN(C)C(=O)Nc1cccc2ccccc12
3	3.8	-1	CCC(=O)N1CCC2(CC1)CN(C(=O)Nc1ccccc1F)[C@H](CO)c1c2c2ccc(OC)cc2n1C
4	3.6	0	O=C(Nc1ccc2c(c1)[C@@H]1C[C@@H](CC(=O)N3CCCCC3)O[C@@H](CO)[C@@H]1O2)NC1CCCCC1
0	6.3	-6	COCC#Cc1ccc([C@@H]2[C@@H](CO)N3C(=O)CN(C(=O)Nc4ccc(F)cc4)C[C@@H]23)cc1
5	14	-10	COc1ccc(NC(=O)N2CCC3(CC2)CN(C(=O)c2cccnc2)[C@H](CO)c2[nH]c4cc(OC)ccc4c23)cc1
19	2.7	17	CC(=O)N1CCCCN2[C@H](CO)[C@H](c3ccc(-c4ccccc4)cc3)[C@@H]2C1
u	x	x	Cc1cccc(-c2ccc([C@@H]3[C@@H](CO)N4C(=O)CN(C(=O)c5ccc6c(c5)OCO6)C[C@H]34)cc2)c1

Bioassay records: PubChem BioAssay, Broad Institute

These rows are one share of the data, so the mix of outcomes need not match the whole.
